Mtb hypoxia rep: reduces hypoxia-regulated biosensor signal in M. tuberculosis | M. tuberculosis hypoxia-regulated fluorescent reporter, fluorescence | fluorescence inhibition, % (no concentration beside the values) | hit rate 0.1% among 300,000;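 active means 35 to 45% if threefold the growth effect, above 45% if 1.5-fold the growth effect; inactive means the rest, general growth blockers included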;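 further: wells of about 50 µL received 100 nL stock; 0% = vehicle wells and 100% = reference inhibitor wells; whole bacteria with a GFP reporter of the hypoxia response; strong numbers were not always called active; many hits fall short of the cut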
Sa RN4220 lethal: S. aureus RN4220 growth inhibition | OD600, 16 h | inhibition, % (concentration not given with the values) | hit rate 0.33% among 330,000 | AID 1259311;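 active means z-score of -3 or lower and OD600 up to 0.18 on both plates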;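 further: plate controls were untreated cells for no effect and reference antibiotic for full effect; stock transfer was 100 nL into about 80 µL; one replicate is shown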
Autofluor counter: counter-screen for toxin protease inhibitors: compound fluorescence | hit rate 3.1% among 360,000 | compound autofluorescence counterscreen, microsphere flow cytometry; active compounds read high | AID 624483 | fluorescence intensity (no concentration beside the values);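 active means at least 3 SD above the mean of all compounds, about 16000 in these data; inconclusive means too few beads counted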;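 further: 100 nL of 1 mM stock went into each well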
BJeLR lethal: kills HRASV12-expressing BJeLR cells. BJeLR (HRASV12) viability, CellTiter-Glo ATP luminescence, 48 h; reference of the scale not given here. inhibition, % (no concentration beside the values). hit rate 0.17% among 300,000. AID 1554;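 active means replicate mean above 50%; inconclusive means above 50% but judged a plate artefact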;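 further: 50 nL library stock added to about 25 µL; numbers are from one replicate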
Sa ugtP lethal: growth inhibition of S. aureus ugtP deletion strain; S. aureus RN4220 ugtP deletion, OD600 growth, 16 h; some inactives read as strong as hits; growth inhibition, % (concentration not given with the values); hit rate 0.54% among 330,000;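 active means z-score under -3 and OD600 up to 0.15 on both plates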;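 further: plate controls were untreated wells for no effect and antibiotic for full effect; wells of about 80 µL received 100 nL stock; the first replicate is given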
PrP 5UTR inh: suppresses PrP 5' UTR mRNA reporter expression | hit rate 0.35% among 340,000 | AID 488862 | inhibition, % (concentration not given with the values) | cell-based PrP 5' UTR mRNA reporter, plate reader;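 active means every replicate at 50% or more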;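 further: 0 = median of the neutral control wells; tested in H4 reporter cells; numbers are from one replicate; inactives centre near -14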
Mtb hypoxia rep growth: recorded beside Mtb hypoxia rep, whose call it bears; growth inhibition, %; measured here: M. tuberculosis growth (absorbance);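 0% = vehicle and 100% = reference antibiotic; read after six days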
Starred values were filed as active, the others as inactive; ? = inconclusive; . = no result given; & = joins results of further samples.

SMILES	Mtb hypoxia rep	Mtb hypoxia rep growth	Sa RN4220 lethal	Autofluor counter	BJeLR lethal	Sa ugtP lethal	PrP 5UTR inh
Cc1ccc(C2C(C#N)=C(N)N(c3cccnc3)C3=C2C(=O)CCC3)c(C)c1 (stereo unspecified)	-2	0	2.3	3873	-1	-4	4
CC(C)(C)c1ccc(C(=O)NCCn2c(N)c(C#N)c3nc4ccccc4nc32)cc1	-3	2	5.5	2252	0	-10	-14
COc1ccc(NC(=O)c2cccc(OC(=S)N3CCOCC3)c2)cc1	2	-6	2.9	3552	3	5	-20
CCOc1cccc(-c2nnc3sc(COc4ccccc4)nn23)c1	-1	1	12	10564	4	-13	-16
Cc1ccc(S(=O)(=O)N(C)c2ccc(OCC(=O)NCc3ccco3)cc2)cc1	15	5	3.0	10095	-1	-5	-21
Cc1sc(NC(=O)CN2C(=O)NC3(CCCC3)C2=O)nc1-c1ccc(F)cc1	0	-7	0.5	5240	5	-6	13
CCOC(=O)CSc1nc(C)c(Oc2ccc(Cl)cc2Cl)c(=O)[nH]1	-3	-8	2.1	4603	-9	-6	-8
O=C(NC1CCCCC1)C(c1cccnc1)N(C(=O)CCl)c1cccc(Cl)c1 (stereo unspecified)	20	25	17	10691	89*	-7	-4
COc1cccc(C2c3c(oc4ccccc4c3=O)C(=O)N2c2ccccn2)c1 (stereo unspecified)	.	.	8.5	4438	-11	14	-23
Cc1ccc(CSc2n[nH]c(N)n2)cc1	0	0	10	4166	2	4	-35

Complete entries, looked up by structure. Order of values: Mtb hypoxia rep	Mtb hypoxia rep growth	Sa RN4220 lethal	Autofluor counter	BJeLR lethal	Sa ugtP lethal	PrP 5UTR inh
COc1ccc(NC(=O)c2cccc(OC(=S)N3CCOCC3)c2)cc1 as listed: 2	-6	2.9	3552	3	5	-20
CCOC(=O)CSc1nc(C)c(Oc2ccc(Cl)cc2Cl)c(=O)[nH]1 as listed: -3	-8	2.1	4603	-9	-6	-8

Back to the main list; the 4 compounds before the break are reprinted first.
SMILES	Mtb hypoxia rep	Mtb hypoxia rep growth	Sa RN4220 lethal	Autofluor counter	BJeLR lethal	Sa ugtP lethal	PrP 5UTR inh
CCOC(=O)CSc1nc(C)c(Oc2ccc(Cl)cc2Cl)c(=O)[nH]1	-3	-8	2.1	4603	-9	-6	-8
O=C(NC1CCCCC1)C(c1cccnc1)N(C(=O)CCl)c1cccc(Cl)c1 (stereo unspecified)	20	25	17	10691	89*	-7	-4
COc1cccc(C2c3c(oc4ccccc4c3=O)C(=O)N2c2ccccn2)c1 (stereo unspecified)	.	.	8.5	4438	-11	14	-23
Cc1ccc(CSc2n[nH]c(N)n2)cc1	0	0	10	4166	2	4	-35
Cc1cc[n+](-c2[nH]c(=O)sc2/C=N/N=C(\[O-])CCn2c3ccccc3c3ccccc32)cc1	.	.	.	4435	5	.	-23
Cc1ccc(S(=O)(=O)N2CCC(=O)N(C(COCc3cccc(Cl)c3)Cc3ccccc3)CC2)cc1 (stereo unspecified)	6	12	0.4	3696	-2	9	-10
CCCn1c(C)csc1=NC(=S)Nc1ccccc1	-12	-10	-1.9	.	.	-1	.
O=C(Nc1ccccn1)Nc1ccccc1Cl	0	9	2.3	3706	-16	-1	-51
Cc1nc(Cl)c(C(=O)NCc2ccccc2)c(C)c1[N+](=O)[O-]	4	-4	8.1	3073	-6	7	4
N#Cc1ccc(COc2cccc3cccnc23)cc1	11	-2	4.6	5469	10	1	2
Cc1nn(-c2ccccc2)c(Cl)c1/C=N/NC(=O)c1[nH]ncc1Br	.	.	.	5583	6	.	-15
C=CCn1c(Cc2c[nH]c3ccccc23)n[nH]c1=S	15	7	2.8	7744	14	3	8
CCCCNC(=O)C(Cc1ccccc1)NS(=O)(=O)c1ccc2c(c1)c(=O)n(C)c(=O)n2C (stereo unspecified)	8	8	2.6	5843	.	15	-16
O=c1c2cnn(-c3ccccc3)c2ncn1Cc1ccccc1F	10	14	1.3	5710	0	5	-44
COc1ccc(S(=O)(=O)NC(CC(=O)NC2CCCC2)c2ccco2)cc1 (stereo unspecified)	.	.	2.6	2656	2	2	-23
CCCNC(=O)NC(=O)COc1ccc(-c2ccc(C#N)cc2)cc1	-7	-4	4.1	3264	1	5	-11
COC(=O)C(Cc1ccccc1)NC(=O)c1cc(=O)[nH]c2ccccc12 (stereo unspecified)	7	16	4.0	3729	-3	-5	-8
COc1ccc(Cl)cc1NC(=O)COC(=O)C1COc2ccccc2O1 (stereo unspecified)	10	6	3.9	9045	.	3	-20
COc1ccc(-c2nn(CC(=O)NCCc3ccccc3)c(=S)n2C)cc1	6	6	3.5	3531	-1	3	-1
CCCCOc1ccc(C(=O)Nc2cc(C)c(OCC(=O)N3CCOCC3)c(C)c2)cc1	3	6	3.1	3301	14	5	-16
O=C(Nc1ccc2c(c1)OCCO2)C1CCN(C(=O)c2ccccc2)CC1	-1	9	0.1	2880	1	2	-21
NC(=O)CSc1nnc(Cn2c(=O)sc3ccccc32)n1-c1cccc(Cl)c1	8	-4	5.6	16396*	-8	6	-10
CC(C)Oc1snc(Cl)c1C(N)=O	5	5	-13	3287	4	-5	-15
CC(=O)N1N=C(c2ccc(Cl)cc2)OC12CCCC2	3	5	11	3995	-4	3	-27
Cn1c(SCc2nc3ccccc3[nH]2)nnc1-c1cnccn1	-8	2	4.6	3537	4	8	0
CCOC(=O)C(=CNc1cc(C(F)(F)F)ccc1N1CCOCC1)C(=O)OCC	6	-8	7.1	?	-2	5	-10
O=[N+]([O-])c1ccc(OCCN2CCCCCC2)cc1	12	-1	6.1	3198	-2	9	-12
CCOc1ccc(C(=O)NC2CC(=O)N(c3ccc4c(c3)OCCO4)C2)cc1 (stereo unspecified)	4	2	3.6	.	6	5	-14
COc1cc([N+](=O)[O-])ccc1-c1ccc(/C=N\n2cnnc2)o1	.	.	.	4009	1	.	1
CCCNC(=O)c1cn(CC)c2cc(N3CCN(C(=O)c4ccco4)CC3)c(F)cc2c1=O	-7	7	30	5537	-2	36	-4
O=C(Nc1ccc(F)c(F)c1)c1ccc(-n2cncn2)c([N+](=O)[O-])c1	14	12	-2.7	2848	.	4	-12
CC(=O)c1cc2c(cc1NC(=O)C1CC=CCC1C(=O)O)OCO2 (stereo unspecified)	8	4	7.5	10039	1	10	-22
CC1=C(C(=O)OCc2ccccc2)C(c2cccc([N+](=O)[O-])c2)NC(=O)N1 (stereo unspecified)	-3	0	3.8	3810	-6	-1	-18
O=C(NCCN1CCOCC1)C(=O)NCC1OCCN1S(=O)(=O)c1ccc(F)cc1 (stereo unspecified)	6	3	0.5	5147	11	-1	-18
Cc1c(C(=O)NN=Cc2cccnc2)sc(=S)n1C	5	0	5.7	.	.	7	.
C/C(=N\NC(=O)c1csc(C)c1C)c1ccco1	.	.	.	3941	9	.	-36
CCc1ccc(NC(=O)C(C)OC(=O)CC(NC(C)=O)c2ccccc2)cc1 (stereo unspecified)	1	4	-2.4	3525	-3	12	-14
Cc1cc(C)n2nc(NCc3ccccc3)nc2n1	14	8	4.9	20633*	14	-11	-12
Cc1ccc2c(c1)c1c(n2CC(O)Cn2c(C)nc3ccccc32)CCCC1 (stereo unspecified)	1	4	7.4	4446	-2	5	-6
Cc1cccc(-n2cc3c(=O)n(C)c(=O)n(C)c3c2)c1	4	-9	12	4968	-3	6	-21
Clc1cccc(Cl)c1-c1nnc2ccc(N3CCOCC3)nn12	10	0	6.5	11459	0	13	-22
Cc1ccc(-c2cc(C(F)F)n3ncc(C(=O)N4CCc5ccccc5C4)c3n2)cc1	1	6	-2.8	2140	-4	-27	-21
COc1ccc(S(=O)(=O)N2CCN(C(=O)CNC(=O)c3ccc4c(c3)OCO4)CC2)cc1	6	-2	1.1	.	5	1	-2
CC(C)c1ccc(OCC(=O)NCc2n[nH]c(=O)c3ccccc23)cc1	-2	4	2.3	.	-5	12	-14
CN(Cc1ccccc1)C(=O)CN(C)S(=O)(=O)c1ccc(F)cc1	2	1	3.0	3180	-5	4	-20
COCCn1c(SCC(=O)N2CCCC(C)C2)nnc1-c1ccco1 (stereo unspecified)	8	5	6.2	3609	2	7	-8
CC(=NNC(=O)c1nnn(-c2nonc2N)c1-c1cccs1)c1ccncc1	8	-3	0.8	.	.	1	.
Cc1ccccc1Nc1nc(N)nc(CSc2nnnn2C)n1	13	12	5.2	3221	0	3	-69
CCOc1ccc(NC(=O)N2CCN(CC)CC2)cc1	-2	2	1.6	11057	-19	8	-14
c1ccc2ccccc2c1	9	13	2.0	5563	.	4	-4
COc1ccc(C=NNC(=S)NC2CCS(=O)(=O)C2)cc1OC (stereo unspecified)	8	-5	2.6	.	.	3	.
COC(=O)c1ccccc1NC(=S)N1CCN(C2CCCCC2)CC1	3	-8	0.0	4339	-13	9	-7
CCC(C)(C)NC(=O)C(c1ccc(OC)cc1)N(CC1CCCO1)C(=O)CCC(=O)Nc1cc(C)on1 (stereo unspecified)	.	.	5.4	4248	3	6	-15
Cc1cc(Cl)ccc1OCC(=O)N1CCCN(C(=O)COc2ccc(Cl)cc2C)CC1	.	.	.	2162	10	.	-7
Additional results
SMILES	Mtb hypoxia rep	Mtb hypoxia rep growth	Sa RN4220 lethal	Autofluor counter	BJeLR lethal	Sa ugtP lethal	PrP 5UTR inh
COc1cc2c(cc1C=O)OCO2	11	8	5.5	1977	-7	7	-3
COCc1cc(C)nc(OCC(=O)N/N=C/c2ccccc2O)c1C#N	.	.	.	2254	-16	.	1
COc1cccc(CNC(=O)C2CCN(S(=O)(=O)c3ccc(-n4cnnn4)cc3)CC2)c1	-16	-19	1.2	3714	-6	6	-5
Cc1ccccc1CSCC(=O)N1CCN(c2ccccc2)CC1	-11	-2	6.5	2442	10	11	-26
COc1cc(OC)cc(C(=O)NN=Cc2ccoc2)c1	6	-7	1.7	.	.	7	.
CCOc1cccc(-c2c(C(=O)NN=Cc3ccc(C)s3)nnn2-c2nonc2N)c1	-3	12	1.7	.	.	-3	.
CCCOc1ccc(-c2c(C(=O)NN=Cc3ccc(OC)cc3)nnn2-c2nonc2N)cc1	0	8	-3.3	.	.	8	.
CC(C)CN(C(=O)Cn1nnc(-c2ccc(F)cc2)n1)C1CCS(=O)(=O)C1 (stereo unspecified)	-8	-7	5.4	6265	3	5	-3
CC(Nc1nc2ncn(Cc3ccccc3)c2c(=O)[nH]1)C(=O)O (stereo unspecified)	-4	9	15	2630	12	4	-21
COc1cc(/C=N/Nc2nc(Nc3ccccc3)nc(-n3nc(C)cc3C)n2)cc(OC)c1OC	.	.	.	2259	8	.	-26
COc1ccc(C2Nc3ccccc3C(=O)N2Cc2ccco2)cc1CN1C(=O)c2ccccc2C1=O (stereo unspecified)	3&-1	-6&9	0.6&-0.1	5250&9737	0&0	0&10	-26&-37
COc1cccc(N2CCN(S(=O)(=O)c3cccc4cccnc34)CC2)c1	-14	-2	-1.8	4665	3	2	-21
CCc1ccc2oc(C(=O)Nc3ccc(S(N)(=O)=O)cc3)c(C)c2c1	7	3	5.9	3558	-5	1	-26
COc1ccc(C(CCN2CCN(c3ccccc3)CC2)c2c(O)cc(OC)cc2OC)cc1 (stereo unspecified)	-1	14	-0.9	4271	5	-1	-11
Cc1cc(C)n(C(=O)CCCn2nc(C)c([N+](=O)[O-])c2C)n1	8	0	8.1	3385	-3	3	-18
CCCCCCc1cc2cc(-c3nnc(-c4cc(OC)c(OC)c(OC)c4)o3)c(=O)oc2cc1O	-10	2	3.0	.	6	18	.
Cc1ccc(/C=N/NC(=O)c2nnn(-c3nonc3N)c2CSc2ccc(Cl)cc2)o1	.	.	.	4564	5	.	-10
Cc1cc(Cl)ccc1OCC(O)CN1C(C)CCCC1C (stereo unspecified)	13	9	6.2	.	9	2	.
COc1ccc(-c2c(C)nc(N)nc2-c2ccc(OC)cc2O)cc1	8	-4	0.7	2944	1	15	-10
CN(c1ccccc1)S(=O)(=O)c1cccc(NC(=O)Nc2ccc(Cl)cc2C#N)c1	16	2	5.4	2046	-4	-5	-24
CCOC(=O)N1CCN(S(=O)(=O)N2CCCC(C(=O)NC(C)c3ccccc3)C2)CC1 (stereo unspecified)	-5	-2	0.8	5399	2	3	-2
CCOC(=O)C1=C(COC(=O)c2cc(Br)c(Br)s2)NC(=O)NC1C (stereo unspecified)	1	1	11	5088	0	-3	-19
COc1ccc(C(=O)CCC(=O)Nc2cccnc2)cc1	15	9	4.5	3863	0	4	-15
Cn1c(SCC(=O)NCCc2ccccc2)nc2c([nH]c3ccccc32)c1=O	-4	-2	0.8	2450	-20	2	-9
